# Screening data from PubChem.
# Biofilm kill mix: mixture kills Candida albicans biofilm cells. C. albicans biofilm persisters + clotrimazole, fluorescence viability; primary screen in compound mixtures of four per well. inhibition, % at 7.6 µM. 0.02% of 120,000 active;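 active = inhibition above 30.3% in the primary screen of four-compound pools, then above 30% when the compound was retested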;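 also: compounds exposed to preformed 24 h biofilms for 48 h; the number belongs to the whole pool; some results filed as inactive read as strong as hits; inactives centre near 12; 0% = biofilm with clotrimazole alone and 100% = kill control; retested singly at about 60 µM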
#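 Assay system: C. albicans biofilms / Medium: RPMI/MOPS medium, pH 7.0 / Schedule: biofilm formation 24 h, compound exposure 48 h, 37 °C / Measured by: Alamar Blue fluorescence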
# * = called active by the depositor. An excerpt. The share of hits here may be higher or lower than overall.
mol | Biofilm kill mix
CN(NS(=O)(=O)c1ccc(Cl)cc1)c1ncc(C(F)(F)F)cc1Cl | 6
CCOC(=O)c1ccc(S(=O)(=O)Nc2nc3cc(S(=O)(=O)NC4=NCCCCC4)ccc3s2)cc1 | 15
O=C(NCCc1ccc(Cl)cc1)C1CCC(CNc2c(N3CCCCC3)c(=O)c2=O)CC1 (centres undefined) | 15
CCc1ccc2[nH]c3nc(SCc4nnc(-c5ccc(C)cc5)o4)nnc3c2c1 | 14
CCN(CC)S(=O)(=O)c1ccc2c(c1)nc(CCC(=O)OCC(=O)Nc1cc(OC)cc(OC)c1)n2C | 29
COc1ccc(Nc2nc(NCc3ccco3)nc(N/N=C/c3ccc(O)cc3)n2)cc1 | 2
CCc1nn2c(N(C)CCO)cc(C)nc2c1-c1ccc(F)cc1 | 22
O=C(/C=C/c1cccc([N+](=O)[O-])c1)NCc1ccccc1 | 14
Cc1ccc(-c2nnc(Nc3ccc4c(c3)OCO4)c3ccccc23)cc1S(=O)(=O)NC(C)C | 9
Cc1cc2nc(-c3ccc4c(c3)CCC4)ccn2n1 | 3
CCOC(=O)C1(CCCc2ccccc2)CCN(C(=O)CCC2=NNC(=O)CC2)CC1 | 17
Nc1nc(Nc2ccccc2F)nc(NCc2ccco2)c1[N+](=O)[O-] | 8
Cc1nc(S(=O)(=O)Cc2ccc(Cl)cc2)nc2c1CCC2 | 3
Cc1ccc(-n2cccc2C(=O)NS(=O)(=O)c2ccc(C)cc2)cc1 | 22
COc1ccc(O[C@@H]2O[C@H](COC(C)=O)[C@@H](OC(C)=O)[C@H](OC(C)=O)[C@H]2NC(C)=O)cc1 | 12
Cc1ccc(O)c(-c2cc(C(=O)Nc3c(C)n(C)n(-c4ccccc4)c3=O)[nH]n2)c1 | 16
CC1(c2ccccc2Cl)NC(=O)N(CC(=O)NCc2ccco2)C1=O (centres undefined) | 0
CN(C)S(=O)(=O)N(CC(=O)Nc1ccccc1F)c1ccccc1 | 9
COc1ccc(/C=N/NC(=O)c2ccc3nc[nH]c3c2)cc1OC | 17
COc1ccc(Nc2ccccc2N)cc1 | 17
C/C(N)=C(/C#N)C(=O)CSc1nc2cc(Cl)ccc2c(=O)n1Cc1ccco1 | 10
CCOc1ccc(N2C(=O)C3C(c4ccc(O)cc4)NC(CCSC)(C(=O)OC)C3C2=O)cc1 (centres undefined) | 0
O=C(C1CCCO1)N1N=C(c2ccc(Br)cc2)CC1c1ccco1 (centres undefined) | 15
COc1ccc(S(=O)(=O)NCC2CCCN(Cc3ccc(C)o3)C2)cc1 (centres undefined) | 19
Cc1nc([N+](=O)[O-])c(Sc2nc3ccccc3n2C)n1Cc1ccccc1 | 12
Cc1nn(-c2ccc(F)cc2)c(Cl)c1/C=N/NC(=O)c1ccc(O)cc1 | 10
O=C(NC(Cc1c[nH]c2ccccc12)C(=O)N/N=C/c1ccc(Br)cc1)c1cccs1 (centres undefined) | 11
Cc1cccc(OCCSc2nc3ncnc(N)c3[nH]2)c1 | 13
COC(=O)C1=COC(OC2OC(CO)C(O)C(O)C2O)C2C1C=CC2(O)CO (centres undefined) | 26
O=C(c1cc2c(s1)-c1ccccc1OC2)N1CCc2ccccc2C1 | 9
Cn1c(C(=O)O)ccc1S(=O)(=O)N(Cc1ccccc1)Cc1ccccc1 | 19
COCCSc1ccccc1C(=O)N1CCN(c2ccccc2)CC1 | 15
CCCCSc1nnc(-c2ccccc2)c2ccccc12 | 24
CCN(CC(=O)NCc1ccc(Cl)cc1)C(=O)/C=C/c1ccco1 | 11
CCC(c1nnnn1CCOC)N1CCN(c2nc3ccccc3s2)CC1 (centres undefined) | 21
S=C(Nc1ccc(Oc2ccccc2)cc1)N(CCCN1CCOCC1)Cc1ccccn1 | 16
O=C1CSC(c2ccccc2[N+](=O)[O-])N1c1ccccc1 (centres undefined) | 8
N/C(=N\OC(=O)Oc1ccccc1)c1ccc([N+](=O)[O-])cc1 | 10
CC(=O)Nc1ccccc1C(=O)C(=O)Nc1ccc(Cl)cc1 | 6
COc1ccc(-n2cccc2/C=C2/NC(=O)N(c3cccc(Cl)c3)C2=O)cc1 | 11
Brc1c(-c2ccccc2)nc2n1Cc1ccccc1-2 | 18
CC1CC(C)CN(CC(=O)NCCc2ccc(S(N)(=O)=O)cc2)C1 (centres undefined) | 13
CCCCC(O)(CCCC)C(=O)NN(C(=O)CCl)c1ccccc1 | 21
Cc1ccccc1NC(=O)COc1ccc(Br)cc1C | 13
CC(=O)Nc1ccc(NC(=O)c2ccc(Cn3cc(Cl)cn3)cc2)cc1 | 13
Cc1ccc(C2=NN(C(=O)CCC(=O)O)C(c3cccs3)C2)cc1 (centres undefined) | 14
O=C(Nc1ccc(-c2nnn(CC(=O)N3CCN(C(=O)c4ccco4)CC3)n2)cc1)c1ccc(F)cc1 | 13
Cc1ccc(NCC(=O)N/N=C\c2cccc(O)c2)cc1 | 7
Cc1cc(C(C)(C)C)oc1C(=O)OCC(=O)NC1CCCCC1 | 11
C/C(CC(=O)Nc1ccc(Cl)cc1Cl)=N\NC(=O)c1ccco1 | 17

# (continued)
mol | Biofilm kill mix
CCc1ccccc1S(=O)(=O)Cc1ccc(C(=O)NCc2cccs2)o1 | 13
COc1ccc(CNC(=S)N/N=C/c2ccc(O)c(OC)c2)cc1 | 17
Cc1cc(C(=O)NCc2cc(C(=O)O)co2)co1 | 0
N#C/C(=N\Nc1ccccc1F)c1nc(-c2ccccc2)cs1 | 28
Cc1cccc(Nc2nc(N)c([N+](=O)[O-])c(NCc3ccco3)n2)c1 | 6
COCCn1c(SCc2cc(=O)n3ccsc3n2)nnc1-c1ccncc1 | 16
CNC(=S)N/N=C/c1ccc(OCc2ccccc2)c(Br)c1 | 11
CCC(C)Nc1nc(C)nc2c1oc1ccccc12 (centres undefined) | 25
COc1ccccc1NC(=O)Cn1nnc(C(=O)NCCc2ccccc2)c1N | -4
Cc1cccc(Cc2nnc(CCC(=O)NCc3ccncc3C)o2)c1 | 19
Cc1cc(Oc2ccc([N+](=O)[O-])cc2)nc(N2CCOCC2)n1 | 18
COc1ccc(-c2[nH]c(-c3ccc(Cl)cc3)nc2SCC(=O)Nc2nccs2)cc1 | 12
CC(=O)C1=C(O)C(=O)N(CCCN2CCOCC2)C1c1ccccc1[N+](=O)[O-] (centres undefined) | 19
CC(=O)N/N=C(\C)CC(=O)Nc1ccc2c(c1)OCCO2 | 17
COc1ccc(CNCC(=O)Nc2cccc(S(N)(=O)=O)c2)cc1 | 6
CC(=O)N/N=C(\C)CCc1ccccc1 | 8
COc1ccc(OC)c(CNn2c(-c3ccccc3F)nc3ccccc3c2=O)c1 | 15
Cc1ccc(S(=O)(=O)c2c(C)nn(C(C)(C)C)c2OC(=O)CC(C)C)cc1 | 15
CN(Cc1ccccc1F)c1nc(-c2cccs2)nc2ccccc12 | 12
CC(C)=Nc1ccccc1C1COC(=O)C1=N (centres undefined) | 11
COc1ccc(CCn2c(=O)[nH]c3cc(C(=O)NCCCN4CCOCC4)ccc3c2=O)cc1OC | 4
NC(=O)c1ccc(-n2nnnc2Oc2ccc(Br)cc2)cc1 | 12
C/C(=N\NC(=O)CNc1cccc(C(F)(F)F)c1)c1cccs1 | 15
Cc1cccc(NC(=O)c2ccc(Cl)c(NC(=O)c3ccncc3)c2)c1C | 4
O=C1C(Cl)=C(NCCN2CCCCC2)C(=O)c2ccccc21 | 24
C/C(=N\NC(=O)c1c(Br)cnn1C)c1ccc(NC(=O)c2ccc(F)cc2)cc1 | 14
CCN(CCn1cccn1)C(=O)CCc1nnc(-c2ccccc2)o1 | 15
CS(=O)(=O)N(CC(=O)Nc1ccc(F)c(F)c1)c1cccc([N+](=O)[O-])c1 | 18
Cc1cc(C)c(C#N)c(Sc2ccccc2N)n1 | 12
CCOC(=O)C1=NNC2(CC(=O)N(c3cc(C)cc(C)c3)C2=O)C1 (centres undefined) | 17

# Structural class, those above containing a thiophene ring, fused or not
mol | Biofilm kill mix
O=C(NC(Cc1c[nH]c2ccccc12)C(=O)N/N=C/c1ccc(Br)cc1)c1cccs1 (centres undefined) | 11
O=C(c1cc2c(s1)-c1ccccc1OC2)N1CCc2ccccc2C1 | 9
Cc1ccc(C2=NN(C(=O)CCC(=O)O)C(c3cccs3)C2)cc1 (centres undefined) | 14
CCc1ccccc1S(=O)(=O)Cc1ccc(C(=O)NCc2cccs2)o1 | 13
CN(Cc1ccccc1F)c1nc(-c2cccs2)nc2ccccc12 | 12
C/C(=N\NC(=O)CNc1cccc(C(F)(F)F)c1)c1cccs1 | 15

# The results go on.
mol | Biofilm kill mix
Cc1ccc(C(=O)N/C(=C/c2ccccc2)C(=O)NCC2CCCO2)cc1 (centres undefined) | 18
OCCN1CCN(CCOc2ccccc2-c2ccccc2)CC1 | 5
Cc1ccc(C)c(NC(=O)COC(=O)c2cccc3c2C(=O)c2ccccc2C3=O)c1 | 11
N#Cc1ccc(OCC(=O)N/N=C(\CCC(=O)O)c2cccs2)cc1 | 10
O=C(O)/C=C\C(=O)Nc1ccc(N2CCN(c3ccc(Cl)c(Cl)c3)CC2)cc1 | 32
CN(C)C(=O)c1ccc(-c2cc(C(F)(F)F)nn2C)s1 | 22
O=C(CC1C(=O)NCCN1CC1CCCCC1)NCc1ccccc1Cl (centres undefined) | -6
O=C(Nc1ccccc1)c1cccc(Cn2cc(C(F)(F)F)ccc2=O)c1 | 9
C=CCNC(=O)c1ccccc1NC(=O)C1COc2ccccc2O1 (centres undefined) | 16
O=C(NCCc1cccs1)c1ccc(Cl)cc1 | 21
NC(=O)c1cccn(Cc2ccc(C(F)(F)F)cc2)c1=O | 17
COc1ccc(S(=O)(=O)NC(N)=NCCc2ccccc2OC)cc1 | 7
N#CCc1nc2ccccc2c(=O)[nH]1 | 26
CCOC(=O)/C(C#N)=N\Nc1cc(Cl)ccc1OC | -7
Cc1ccc(SCC(=O)OCn2nnc3ccccc3c2=O)cc1C | 16
S=c1[nH]nc(Cc2noc3ccccc23)n1-c1ccccc1 | 9
COCCNC(=O)C(=O)NNC(=O)c1ccccc1OC | -11
CCCn1ncc(CN2CCN(Cc3ccsc3)C(CCO)C2)c1C (centres undefined) | 21
Cn1c(=O)c(C(=O)COc2ccc(C#N)cc2)c(N)n(Cc2ccccc2)c1=O | 10
CCOCc1nnc(NC(=O)c2cccc(OC)c2)s1 | 18
c1ccc2c(c1)CCCC2C1=NCCN1 (centres undefined) | 6
FC(F)(F)c1nc(Sc2ncccc2C(F)(F)F)n[nH]1 | 25
CCOC(=O)N/N=C/c1ccc(OCCSc2ccc(Cl)cc2)c(OC)c1 | 8
O=C(CN1N=C(c2ccc(Cl)cc2)CCC1=O)NCc1cccs1 | 12
COc1cc(NC(=O)c2ccc(Cl)cc2)c(OC)cc1NC(=O)CN1CCCCC1 | 12
CS(=O)(=O)N1CCN(c2ccccc2NC(=O)c2cc(Br)ccc2Cl)CC1 | 13
CCOc1cc(/C=N/n2cnnc2)ccc1OS(=O)(=O)c1ccc(C)cc1 | -4
CN1CCN(C(=O)c2ccc(CSc3nc4ccncc4n3Cc3ccc(F)cc3)cc2)CC1 | -1
CC(C)(C)OC(=O)NCCCC[C@H](NC(=O)c1nc[nH]c1C(=O)N1CCc2ccccc2C1)C(=O)OC(C)(C)C | 18
O=C(NCCc1nc2ccccc2[nH]1)c1ccc(Cl)c([N+](=O)[O-])c1 | 17

# 6 entries picked at random from the list so far:
mol | Biofilm kill mix
CN1CCN(C(=O)c2ccc(CSc3nc4ccncc4n3Cc3ccc(F)cc3)cc2)CC1 | -1
CCOC(=O)N/N=C/c1ccc(OCCSc2ccc(Cl)cc2)c(OC)c1 | 8
O=C(CN1N=C(c2ccc(Cl)cc2)CCC1=O)NCc1cccs1 | 12
COc1cc(NC(=O)c2ccc(Cl)cc2)c(OC)cc1NC(=O)CN1CCCCC1 | 12
c1ccc2c(c1)CCCC2C1=NCCN1 (centres undefined) | 6
O=C(NCCc1nc2ccccc2[nH]1)c1ccc(Cl)c([N+](=O)[O-])c1 | 17

# Later entries.
mol | Biofilm kill mix
CN(CCc1ccccn1)C(=O)Nc1ccc(C(C)(C)C)cc1 | 14
Clc1ccccc1-c1nnc(-c2ccc3c(c2)OCO3)o1 | 15
Cc1noc(C)c1C(=O)NC(C)c1ccc(Cl)cc1Cl (centres undefined) | 28
O=C(N/N=C/c1cccc([N+](=O)[O-])c1)c1cc(-c2ccccc2)nc2ccccc12 | 18
Cc1ccc(-n2cc(-c3ccc([N+](=O)[O-])cc3)[nH]c2=S)c(C)c1 | 15
COC(=O)Nc1nc(-c2ccc(F)cc2)c(C)s1 | 6
O=C(CCCN1C(=O)/C(=C/c2ccccc2Cl)SC1=S)NNC(=O)c1cccnc1 | 7
CC(C)Cn1c(N)c(C=O)c(=O)[nH]c1=O | 0
O=C(Nc1ccc(N2CCCC2)cc1)c1ccccc1F | 14
COc1ccc(C(=O)NCC(=O)NCC(c2ccco2)N(C)C)cc1OC (centres undefined) | 12
O=C(CSc1nnnn1-c1ccc(O)cc1)c1ccc(F)cc1 | 16
C=CCc1ccc(OCCCCNC2CCCC2)c(OC)c1 | 30
CCC(CC)c1nnc(NC(=O)CN2C(=O)c3ccccc3C2=O)s1 | 9
O=C1OC(c2ccco2)=N/C1=C\c1ccc(-c2cccc(C(F)(F)F)c2)o1 | 4
CSc1ncccc1C(=O)OCC(=O)c1cccc(Br)c1 | 10
O=C(N[C@@H](Cc1ccccc1)C(=O)OCc1ccccc1)c1nc[nH]c1C(=O)N1CCN(c2ccccc2)CC1 | -1
CN(CCc1nc2ccccc2[nH]1)Cc1nc(CC2CC2)no1 | 2
Cc1ccc(NC(=O)CSc2nc3ccccc3c(=O)n2CCCC(=O)NCCCN2CCOCC2)cc1 | 18
COCCNC(=O)C(=O)NCCN1CCOCC1 | 9
CCn1nc(C(=O)OCc2cccc(S(=O)(=O)N(C)C)c2)c2ccccc2c1=O | 18
